High-throughput results from PubChem BioAssay.
Vaccinia mCherry: qHTS for Stage-Specific Inhibitors of Vaccinia Orthopoxvirus: mCherry Reporter Primary qHTS; Vaccinia virus mCherry reporter infection, fluorescence; about a quarter of the inactives have no number; Potency, µM (doses to about 36.5 µM), for the others: at the top dose activity change, negative = inhibition, actives largely listed as inhibitors; actives 0.63% (n = 310,000); active = well fitted inhibition curve with a large enough effect; inconclusive = small, poorly fitted or top-dose-only effect; inactive = no such curve, though single readings can be large or run the other way; tested in A549 cells; note: nearly all actives have a fitted effect of over 35% in size; inactives centre near -10
VACV Venus inh: qHTS for Stage-Specific Inhibitors of Vaccinia Orthopoxvirus: Venus Reporter Primary qHTS. Vaccinia virus Venus reporter expression, fluorescence. Potency, µM (highest dose often 36.5 µM), for inactives: at the highest dose activity change, negative = inhibition, usual class: inhibitors. actives 0.46% (n = 330,000); active means well fitted inhibition curve with a large enough effect; inconclusive means small, poorly fitted or top-dose-only effect; inactive means no such curve, though single readings can be large or run the other way; tested in A549 cells; note: nearly all actives have a fitted effect of over 30% in size; inactives centre near -10
Active calls of the source: *; i = inactive; u = inconclusive; x = no result given; + = active, no number; & = joins results of further samples; [ ] = remark or other dose. % is set by controls: 0 for no effect and ±100 for the full control effect; potency is the fitted concentration of half-maximal effect.

SMILES	Vaccinia mCherry	VACV Venus inh
NC1(C(=O)O)C[C@H](C(=O)O)[C@H](C(=O)O)C1 (stereo partly specified)	-14.8%	-4.3%&-12.8%
COC(=O)c1ccc2c(=O)[nH]c(COC(=O)CCC(=O)c3ccc(Cl)cc3)nc2c1	-6.2%	-9.9%
O=C(Nc1nc(-c2ccccc2)c(C(=O)c2ccccc2)s1)c1ccc(S(=O)(=O)N2CCCCC2)cc1	-1.2%	-4.4%
COc1cc(CN2CCC(C(=O)NC(c3ccc(F)cc3)c3ncccc3C)CC2)cc(OC)c1 (stereo unspecified)	-25.5%	-7.6%
CCN(CC(=O)Nc1cccc(S(=O)(=O)N2CCCC2)c1)CC(=O)Nc1ccccc1OC	-1.2%	-8.3%
CCN(C(=O)CN1CCN(S(=O)(=O)c2cc(Cl)ccc2Cl)CC1)c1c(N)n(Cc2ccccc2)c(=O)[nH]c1=O	-13.6%	-10.3%
CN(Cc1cccc2ncccc12)C(=O)c1cnn(-c2ncc3c(n2)-c2ccccc2CC3)c1C1CC1	-29.0%	u
Cc1c(Cl)ccc2sc(N3CCN(C(=O)C4=COCCO4)CC3)nc12	-23.4%	-16.5%
Cc1ccc(N2CC(C(=O)N3CCC(C(=O)Nc4nnc(C(C)(C)C)s4)CC3)CC2=O)cc1 (stereo unspecified)	19.1%	-5.3%
CC(=O)Nc1ccc(S(=O)(=O)NCC2CCC(C(=O)NCCN(CC(C)C)CC(C)C)CC2)cc1 (stereo unspecified)	8.2%	-3.2%
CC(C)(C)NC(=O)CN(CC1CCCO1)C(=O)CNS(=O)(=O)c1ccc(F)cc1 (stereo unspecified)	-12.8%	-0.4%
CCCc1ccc(C(C)NC(=S)NCc2ccc(F)cc2)cc1 (stereo unspecified)	-16.0%	-22.9%

Three entries from above, reformatted.
COC(=O)c1ccc2c(=O)[nH]c(COC(=O)CCC(=O)c3ccc(Cl)cc3)nc2c1
  Vaccinia mCherry: -6.2%	VACV Venus inh: -9.9%
O=C(Nc1nc(-c2ccccc2)c(C(=O)c2ccccc2)s1)c1ccc(S(=O)(=O)N2CCCCC2)cc1
  Vaccinia mCherry: -1.2%	VACV Venus inh: -4.4%
COc1cc(CN2CCC(C(=O)NC(c3ccc(F)cc3)c3ncccc3C)CC2)cc(OC)c1 (stereo unspecified)
  Vaccinia mCherry: -25.5%	VACV Venus inh: -7.6%

Next structures follow.
SMILES	Vaccinia mCherry	VACV Venus inh
COCCCn1c(SCC(=O)NC2CCCCC2)nnc1-c1ccco1	-5.1%	-19.4%
COc1ccc2cc(C3OCCO3)c(Cl)nc2c1	i	-5.1%
O=C(O)C1(c2ccccc2)CCN(S(=O)(=O)c2cccc(Cl)c2)CC1	i	-11.3%
COc1cccc(CN2C(=O)c3ccccc3Sc3ccc(C(=O)OCc4ccco4)cc32)c1	-21.4%	-15.6%
C[C@H]1CN([C@@H](C)CO)C(=O)CCCn2nncc2CO[C@@H]1CN(C)C(=O)c1ccc(N2CCN(C)CC2)cc1	i	-9.3%
Cc1ccsc1C(=O)OC(C)C(=O)NC1CCCCC1C (stereo unspecified)	-11.5%	-11.7%
O=c1c2ccccc2nc(SCc2cc(F)ccc2F)n1C1CCCC1	-9.1%	-6.8%
Cc1ccnc(NS(=O)(=O)c2cc([N+](=O)[O-])ccc2C)c1	i	-5.2%
O=C1CCCC2=C1C(c1ccccn1)Nc1ccc(C(=O)c3ccccc3)cc1N2 (stereo unspecified)	-15.5%	-8.7%
C=CCn1c(-c2cc(Cl)ccc2OC)n[nH]c1=S	x	-4.7%
CC(=O)c1c(C)[nH]c(C(=O)COC(=O)c2cccnc2Cl)c1C	-9.0%	-6.8%
CC1CCc2c(sc3nc(CN4CCOCC4)nc(NS(=O)(=O)c4cccc([N+](=O)[O-])c4)c23)C1 (stereo unspecified)	-5.0%	-17.8%

Twelve compounds from above, ordered by number of heavy atoms, highest first.
SMILES	Vaccinia mCherry	VACV Venus inh
C[C@H]1CN([C@@H](C)CO)C(=O)CCCn2nncc2CO[C@@H]1CN(C)C(=O)c1ccc(N2CCN(C)CC2)cc1	i	-9.3%
CN(Cc1cccc2ncccc12)C(=O)c1cnn(-c2ncc3c(n2)-c2ccccc2CC3)c1C1CC1	-29.0%	u
CC(=O)Nc1ccc(S(=O)(=O)NCC2CCC(C(=O)NCCN(CC(C)C)CC(C)C)CC2)cc1 (stereo unspecified)	8.2%	-3.2%
COc1cccc(CN2C(=O)c3ccccc3Sc3ccc(C(=O)OCc4ccco4)cc32)c1	-21.4%	-15.6%
Cc1ccc(N2CC(C(=O)N3CCC(C(=O)Nc4nnc(C(C)(C)C)s4)CC3)CC2=O)cc1 (stereo unspecified)	19.1%	-5.3%
O=C1CCCC2=C1C(c1ccccn1)Nc1ccc(C(=O)c3ccccc3)cc1N2 (stereo unspecified)	-15.5%	-8.7%
CC(C)(C)NC(=O)CN(CC1CCCO1)C(=O)CNS(=O)(=O)c1ccc(F)cc1 (stereo unspecified)	-12.8%	-0.4%
COCCCn1c(SCC(=O)NC2CCCCC2)nnc1-c1ccco1	-5.1%	-19.4%
Cc1c(Cl)ccc2sc(N3CCN(C(=O)C4=COCCO4)CC3)nc12	-23.4%	-16.5%
CC(=O)c1c(C)[nH]c(C(=O)COC(=O)c2cccnc2Cl)c1C	-9.0%	-6.8%
Cc1ccnc(NS(=O)(=O)c2cc([N+](=O)[O-])ccc2C)c1	i	-5.2%
COc1ccc2cc(C3OCCO3)c(Cl)nc2c1	i	-5.1%

(cont.)
SMILES	Vaccinia mCherry	VACV Venus inh
COc1ccc(S(=O)(=O)Nc2ccccc2N2CCOCC2)cc1[N+](=O)[O-]	u	-8.8%
Cc1ccc(-c2n[nH]c(=S)n2/N=C/c2ccc(C(=O)O)cc2)cc1	-17.3%	-4.9%
Cc1oc2c(cc(NS(=O)(=O)c3ccc(F)cc3)c3ccccc32)c1C(=O)OCc1ccccc1	-4.6%	-2.7%
CN(CC(=O)NC(=O)NCc1ccco1)Cc1nc2ccccc2c(=O)[nH]1	-0.5%	-7.6%
O=C(COC(=O)COc1ccc(Br)cc1)NCCC1=CCCCC1	-7.4%	-4.7%
CCCNC(=O)c1cc(C2CCCCN2C(=O)OCC(C)C)on1 (stereo unspecified)	7.2%	-10.6%
COc1cc(/C=C/C(=O)c2ccc(NS(=O)(=O)c3ccc(C)cc3)cc2)ccc1OC(F)F	u	u
O=C(N/N=C/c1cc(Br)c(O)c(Br)c1)c1cc2c(ccc3ccccc32)o1	-12.4%	-12.7%
Cc1cc(NC(=O)c2cccs2)no1	3.4%	5.3%
CC(=O)NCCNC(=O)c1ccc(-n2c(C)ccc2C)cc1	-6.2%	-11.9%
CCn1c(-c2ccccc2)c(C(=O)CCl)c2ccccc21	-15.5%	-18.3%
O=C(NCCc1csc(-c2ccccc2)n1)c1ccco1	-13.6%	-4.6%
CCOc1ccc(-c2nnn(CC(=O)NCc3cccs3)n2)cc1	-7.3%	-16.0%
COc1ccc(N/N=C(/N=Nc2nc(C)cc(=O)[nH]2)c2ccccc2)cc1	-9.7%[1.46 µM]	-18.1%
COc1ccc(N2C(=O)N(Cc3ccc(C)cc3)c3ccccc3S2(=O)=O)cc1	u	-4.6%
COc1cccc(-n2c(CN3CCN(c4cccc(C)c4)C(C)C3)nc3ccc([N+](=O)[O-])cc3c2=O)c1 (stereo unspecified)	-9.2%	0.0%
CCOc1ccc(NC(=O)C(=O)NCCc2csc3nc(-c4ccccc4F)nn23)cc1	0.5%	15.0%
CCN(CC)S(=O)(=O)c1ccc(NC(=O)c2ccc(N(C)S(C)(=O)=O)cc2)cc1	x	u
Cc1cc(Br)cn2c(Cc3ccsc3)c(-c3ccc(Cl)cc3)nc12	-16.1%	-18.8%
Cc1ccc(N2C(=O)C3C(C2=O)N2CCCN2C3c2ccccc2)cc1C (stereo unspecified)	-6.5%	11.4%
O=C(Nc1ccc2c(c1)OCO2)C1CCN(C(=O)c2cccs2)CC1	x	-11.8%
Cc1ccc(S(=O)(=O)N2CCC(C(=O)OCC(=O)N(CC(C)C)C3CCS(=O)(=O)C3)CC2)cc1C (stereo unspecified)	-2.9%	-6.2%
Cc1nnc(N2CCN(c3ccccc3)CC2)c2c1nnn2Cc1ccc(F)cc1	-17.7%	-19.1%
CCN(c1ccccc1)S(=O)(=O)c1ccc(C(=O)Nc2ncccc2C)cc1	-19.1%	-11.5%
O=C(CCS(=O)(=O)Cc1ccccc1)Nc1nncs1	-19.6%	-7.9%
CCCOc1ccc(C2c3c(oc4ccccc4c3=O)C(=O)N2CCCN2CCOCC2)cc1 (stereo unspecified)	-17.2%	-1.9%
Cc1cccc(-n2c(Cc3cc(=O)[nH]c(=O)[nH]3)nnc2SCC(=O)N2CCc3ccccc32)c1	u	-9.5%
CN(C)CC(C)(C)CNc1ccc(S(=O)(=O)N2CCCC2)cn1	i	-8.7%
CCOc1cccc(C(=O)Nc2nccs2)c1	i	-7.3%
CCCCCn1c(SCC(=O)CC(=O)OCC)nc2cc(C(=O)N3CCC(C(N)=O)CC3)ccc2c1=O	11.7%	1.7%
COCCNC(=O)c1sc(=O)n(Cc2ccc(SC)cc2)c1C	5.2%	4.1%
O=C(NN=Cc1ccccc1Cl)c1ccc([N+](=O)[O-])cc1	i	0.0%
O=S(=O)(Cc1ccccc1)C1CCCCC1O (stereo unspecified)	-10.5%	-6.0%
C[C@H]1CN([C@@H](C)CO)C(=O)CCCn2nncc2CO[C@H]1CN(C)S(=O)(=O)c1ccc(C#N)cc1	-7.5%	5.3%
COc1ccc(NC2CCCN(C(=O)CSc3ccncc3)C2)cc1 (stereo unspecified)	i	-12.1%
C/C(=N\NC(=O)c1ccccc1F)c1cccc(NC(=O)c2ccc(C)cc2)c1	-21.6%	u
COc1ccc(C(=O)NC2CC2)cc1OC1CCN(Cc2cnn(C)c2)CC1	-9.5%	-1.8%
Cc1occc1C(=O)NNC(=O)c1cccc(F)c1	2.8%	-2.5%
COc1ccccc1Cn1cc(C(=O)c2ccc(F)cc2)c(=O)c2cc3c(cc21)OCO3	-3.6%	-5.3%
CCC(=Nc1ccc(Cc2ccncc2)cc1)c1c(O)n(C)c(=O)n(C)c1=O	-4.6%&-10.6%	-9.5%&-8.2%
Cc1ccc(C)c(-c2[nH]c3c(c2-c2c(-n4cccc4)n(C)c(=O)n(C)c2=O)c(=O)n(C)c(=O)n3C)c1	0.2%	-4.4%
O=C(Nc1nnc(S(=O)(=O)N2CCOCC2)s1)c1cccc(F)c1	-9.9%	-2.8%&-7.8%
O=C(O)CC(C(=O)O)N1C(=O)/C(=C/c2ccc(-c3nc4ccccc4s3)o2)SC1=S (stereo unspecified)	-18.1%[1.46 µM]	-7.2%
CN(C)C(=O)c1cccn1-c1ncc(C(F)(F)F)cc1Cl	i	-11.6%
O=C(Nc1ccc(F)cc1)C1CCCN(S(=O)(=O)c2cccc3nonc23)C1 (stereo unspecified)	-12.6%	-1.6%
CCS(=O)(=O)c1ncc(N(Cc2ccco2)Cc2sccc2C)c(C(=O)Nc2cc(C)ccc2C)n1	-10.8%	-13.0%
COc1ccc(Cl)cc1NC(=O)CSC1=Nc2ccccc2C2=NC(CC(=O)NCc3ccc4c(c3)OCO4)C(=O)N12 (stereo unspecified)	-0.9%	-2.5%
C/C(CC(=O)N1CCN(C=O)CC1)=N\NC(=O)c1ccc(Br)cc1	i	-17.1%
COc1ccc(OC)c(C2=NOC(C(=O)Nc3cc(C)nn3-c3ccccc3)C2)c1 (stereo unspecified)	+	u
O=C(NCC1CCCCC1)c1cc([N+](=O)[O-])ccc1Cl	u	-9.6%
Cc1cc(NC(=O)NN2CCOCC2)nn1-c1c(Cl)cccc1Cl	i	0.1%
CCc1ccc2[nH]c(=O)c(CN(CCN(CC)CC)C(=O)NC3CCCCC3)cc2c1	x	-16.2%
CCCCC1(C)NC(=O)N(CC(=O)Nc2ccc(Cl)cc2C)C1=O (stereo unspecified)	u	-2.5%
Cc1cc(Cl)ccc1NC(=O)CN1C(=O)NC2(CCCC2)C1=O	i	0.6%
O=C(Nc1ccc2c(c1)OCO2)C(c1ccccc1)N1CCCCC1 (stereo unspecified)	i	-4.5%
CCOc1ccc(NC(=O)N(Cc2c[nH]c3ccccc23)C2CCCCCC2)cc1	1.2%[7.34 µM]	1.0%[7.34 µM]
O=C1CCc2cc(Br)ccc2O1	i	-10.0%
Cc1nnc2ccc(N3CCCC3)nn12	-13.7%	-2.5%
O=C(C[n+]1ccc(Cc2ccccc2)cc1)Nc1ccccc1	-1.1%	-2.4%
COc1ccccc1CNS(=O)(=O)N(C)C	-12.2%	-5.1%
C[C@@H]1CN([C@H](C)CO)C(=O)CCCn2cc(nn2)CO[C@H]1CN(C)C(=O)C1CC1	-1.7%	-13.4%
Cc1oc(C(C)(C)C)cc1C(=O)Nc1cccc(/C=C\C(=O)O)c1	-4.2%	5.7%
